Screening data as filed in PubChem.
TRPML1 agonist = human mucolipin-1 channel agonism | TRPML1-expressing cells, Ca2+ dye fluorescence, FDSS; host cell line not named in the record; reference of the full effect not given here | AID 624414 | activation, % (test concentration not listed) | 410,000 compounds, 0.12% hits; in the data active = activation above about 50%; inconclusive = about 30% to 50%; inactive = below about 30%; note: 0% is about no effect; the text of the record puts the active cut at 80%
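Cells: TRPML1-DL, 1X Tet inducer, ~16 h at 37 degrees C/5% CO2. Dye: ABD Ca8 no-wash + quencher, 45-90 min RT. Read: 10 s baseline, compound add, 110 s agonist phase; 54-4 EC80 (4uM final), 110 s antagonist phase.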
D2 potentiator = human D2 receptor positive allosteric modulation. DiscoveRx D2 beta-arrestin cells, luminescence, 90 min; 100% = 57 uM dopamine signal. potentiation, % (concentration not given with the values). 360,000 compounds, 0.23% hits. AID 624464; active = potentiation of 50% or more; inconclusive = 30% to 50%; inactive = 30% or less;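 note: tested on top of an EC20 dose of dopamine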
Target sequence (P14416 whole entry, looked up): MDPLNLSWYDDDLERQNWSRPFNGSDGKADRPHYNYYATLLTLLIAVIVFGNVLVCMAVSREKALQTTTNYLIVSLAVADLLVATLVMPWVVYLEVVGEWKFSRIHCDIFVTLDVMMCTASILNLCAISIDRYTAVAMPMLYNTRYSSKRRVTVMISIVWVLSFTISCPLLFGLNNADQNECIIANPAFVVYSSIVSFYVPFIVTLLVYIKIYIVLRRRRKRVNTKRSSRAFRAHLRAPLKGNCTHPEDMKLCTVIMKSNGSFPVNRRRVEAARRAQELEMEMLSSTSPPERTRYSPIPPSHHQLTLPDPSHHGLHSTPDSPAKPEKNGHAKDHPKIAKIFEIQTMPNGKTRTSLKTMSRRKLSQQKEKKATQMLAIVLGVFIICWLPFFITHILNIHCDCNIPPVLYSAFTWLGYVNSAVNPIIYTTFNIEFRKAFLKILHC
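PathHunter beta-arrestin assay in DiscoveRx D2 cells. Compounds were added with an EC20 of dopamine (50 nM final) for 90 min at 37 deg C. Luminescence was read 1 h after detection reagent, with 57 uM dopamine as the EC100 control.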
D2 agonist = human D2 receptor agonism in beta-arrestin assay; DiscoveRx PathHunter D2 beta-arrestin, luminescence, 90 min; 100% = 57 uM dopamine signal; activation, % (test concentration not listed); AID 624465; 360,000 compounds, 0.084% hits; P14416; in the data active = activation above about 40%; inconclusive = about 15% to 40%; inactive = below about 15%; note: compound concentration not given in the record; the text of the record calls up to 30% inactive
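DiscoveRx PathHunter D2 beta-arrestin cells (2,100/well) attached overnight, then compound-stimulated 90 min at 37 C in HBSS/10 mM HEPES/0.1% Tween-20 buffer; beta-galactosidase complementation read by luminescence after 1 h at ambient temperature. Dopamine 57 uM final (EC100) as control.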
Six1-Eya2 blk = Six1/Eya2 interaction inhibition; AlphaScreen GST-Six1/His-Eya2 binding, biochemical; stronger effect = lower value; control for the full effect not named in the record; activity change, % (concentration not given with the values); AID 651725; 360,000 compounds, 0.56% hits; in the data active = activity change below about -65%; inconclusive = about -30% to -65%; inactive = above about -30%; note: % is set by controls: 0 for no effect and ±100 for the full control effect
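GST-Six1 + His-Eya2 (5X stock: 250/500 nM); Tris pH 8.0, 300 mM NaCl, 0.05% BSA, 0.02% Tween 20; GSH donor/Ni acceptor beads; 1 h 37 °C dark; AlphaScreen readout.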
PINK1 expr mod = modulators of PINK1 expression; Potency, µM (titrated, usually from 76.6 µM), for the others: top-dose activation (PINK1 increase), actives largely listed as activators; 410,000 compounds, 0.2% hits; AID 624263; PINK1 immunofluorescence, high-content cytometry, 24 h; active = well fitted activation curve with a large enough effect; inconclusive = small, poorly fitted or top-dose-only effect; inactive = flat fitted curve, though single readings scatter; cell line not stated here;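 note: potency is the fitted concentration of half-maximal effect; % of control where 0% means no effect; nearly all actives have a fitted effect of over 65% in size; a mitochondrial uncoupler was the plate control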
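Stable cell line, 250 cells/well, 12 h attachment; compounds pinned at 5 concentrations, 24 h; CCCP control. Fixed with nuclear dye, primary antibodies 12 h at 10 degrees C, secondary plus cell stain; laser-scanning cytometer read.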
TRPML1 inh = human mucolipin-1 channel inhibition; Q9GZU1; TRPML1-inducible cells, Ca2+ dye fluorescence, FDSS; stronger effect = lower value; inhibition of EC80 agonist-evoked calcium signal; activity change, negative = inhibition, % (concentration not given with the values); 390,000 compounds, 0.02% hits; in the data active means activity change below about -50%; inconclusive means about -30% to -50%; inactive means above about -30%;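 note: stimulus is agonist 54-4 at its EC80 concentration; % is set by controls: 0 for no effect and ±100 for the full control effect; the text of the record puts the active cut at -80%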
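TRPML1-DL cells, Tet-induced overnight (~16 h, 37 °C) at 1,500 cells/well, were loaded with Ca8 no-wash dye plus quencher for 45-90 min at room temperature. Compounds were pinned during FDSS kinetic reading; agonist 54-4 at EC80 (4 uM final) then added.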
Numbers without * were called inactive; ? = inconclusive; / = not tested or not shown; & = joins results of further samples; [ ] = dose if it differs, or a comment.

SMILES	TRPML1 agonist	D2 potentiator	D2 agonist	Six1-Eya2 blk	PINK1 expr mod	TRPML1 inh
C#CCOCCOCCOCCNc1nc(N2CCN(C(=O)[C@H]([C@@H](C)CC)n3cc([C@@H](N)CO)nn3)CC2)nc(N2CCN(C(=O)[C@H](CCCCN)n3cc([C@@H](N)CO)nn3)CC2)n1	0.4	-4	-0.8	1	-0.7%	1
Cn1c(SCC(=O)NNC(=O)Cc2ccccc2)nnc1-c1ccc(Cl)cc1	-0.3	-15	-2.1	-2	1.6%	0
COc1ccc(-c2cc(C(=O)Nc3c(C(=O)c4ccc(Cl)cc4)oc4ccccc34)no2)cc1	-0.2	/	/	/	3.0%	-3
COc1ccc(NC(=O)C(=O)NCC2CCCN2S(=O)(=O)c2ccc(C)cc2)cc1 (stereo unspecified)	1.0	-4	1.7	-1	4.3%	36
COCCn1c(SCC(=O)/C=C2\N(C)c3ccccc3C2(C)C)nnc1-c1ccncc1	0.2	-7	0.4	-2	1.4%	2
O=C(NCc1ccccc1)c1ccc(F)c(F)c1	-0.3	-1	-1.5	0	-0.1%	6
CCCC(=O)N1CCC1(C)C(=O)Nc1ncc(C(=O)OC)s1 (stereo unspecified)	-0.3	2	-2.7	-2	-0.5%	/
CCn1ccnc1CN(C)Cc1nc(-c2ccccc2)no1	-0.2	-2	1.3	3	1.4%	0
COc1cc(OC)c(NC(=O)NCc2ccc3c(c2)CCN3C(C)=O)cc1Cl	0.7	/	/	/	2.0%	-3
Cc1ccc(C)c(S(=O)(=O)ON2C(=O)c3ccccc3C2=O)c1	0.1	-5	-5.9	1	2.0%	-4
CC(=O)Nc1ccc(Nc2nc(-c3ccccc3)nc3ccccc23)cc1	-0.6	-13	2.4	-11	12%	3
Cc1ccc(NC(=O)COC(=O)c2ccc(OC(F)F)cc2)cc1S(=O)(=O)N1CCCCC1	1.1	0	-4.0	5	3.9%	1
Cc1ccc(Cc2nc3ccccc3nc2SCC(=O)N2CCCc3ccccc32)cc1	2.0	/	/	/	2.2%	5
Cc1c(C(=O)NC2CCCc3ccccc32)oc2ccc(S(=O)(=O)N3CCOCC3)cc12 (stereo unspecified)	0.3	-8	-1.8	-7	16%	41
COc1ccc(C)cc1NC(=O)Nc1ccc(C(=O)N2CCCC2)cc1	2.6	-21	-0.7	0	0.6%	16
Cc1ccc(Nc2nc(N)nc(CSc3nc(C)cc(C)n3)n2)cc1	3.5	6	4.3	-4	-0.2%	8
Cn1cc(CCCC(=O)NCc2ccccc2)c2ccccc21	0.7	3	-0.9	-13	-0.4%	34
Cc1ccc(NC(=O)c2cc(S(=O)(=O)NCCC3=CCCCC3)ccc2F)cc1C	2.9	/	/	/	1.5%	-9
Cc1cc(N=Cc2c(O)ccc3cc(Br)ccc23)no1	1.1	12	9.9	-7	-4.4%	28
O=C1c2ccccc2C(=O)N1CCCCN(C(=O)c1ccc(Cl)s1)c1ccc(Cl)cc1	0.8	-16	-2.8	-1	-0.8%	-5
O=S(=O)(c1ccc(Cl)c(NC(=S)Nc2cccc(O)c2)c1)N1CCOCC1	-0.2	-3	-6.2	-5	-0.7%	11
CC(=O)N(C1=C(Cl)C(=O)c2ccccc2C1=O)C1CCCCC1	0.9	-27	?	-1	0.9%	-14
Cn1nc([N+](=O)[O-])nc1Sc1nnnn1-c1cccc(C(=O)O)c1	/	5	7.4	15	-0.2%	/
C=CCn1c(OCc2ccccc2)n[nH]c1=S	-0.1	-6	-0.7	9	2.7%	-11
O=C(COC(=O)c1cc[n+]([O-])cc1)NCc1ccccc1Cl	0.4	-28	-3.3	-15	3.1%	3
CCCCNC(=O)Cn1cnc2c(cnn2-c2ccc(C)c(C)c2)c1=O	-0.2	-1	-4.5	0	-3.0%[38.3 µM]	-16
O=C1CC(NCc2ccco2)C(=O)N1CCc1ccccc1 (stereo unspecified)	-0.1	7	-1.9	4	4.0%[38.3 µM]	-7
CC(C)(C)OC(=O)C[C@@H]1C/C=C\C[C@H](CC(=O)NCCO)C(=O)N[C@H](Cc2ccccc2)COC1=O	0.0	-7	-0.9	8	0.8%	-1
Cc1[nH]c(C)c(S(=O)(=O)N(C)Cc2ccccc2)c1C(=O)N1CCCCC1	0.7	-3	-1.8	1	-1.5%	-10
Cc1ccc(NC(=O)COC(=O)C2CCC2)cc1S(=O)(=O)N1CCCCC1	0.0	3	-4.2	7	1.1%	16
CCCCS(=O)(=O)N1CCN(S(=O)(=O)c2cccs2)CC1	0.2	-9	-4.6	3	0.1%	-7
CC(C)(C)c1ccc(OCC(=O)Nc2ccc(C(=O)OC3CCCCC3)cc2)cc1	2.1	/	/	/	1.1%	-22
CCN(CCS(=O)(=O)c1ccc(Br)cc1)Cc1nc2ccccc2c(=O)[nH]1	0.1	0	0.6	0	1.3%	-5
COC(=O)c1ccc(NC(=O)COc2ccc(S(=O)(=O)NC(C)C)cc2)cc1	0.4	-8	-2.6	3	/	-1
COc1cccc(CN2CCC(C(=O)Nc3ccc(Oc4cccnc4)cc3)CC2)c1	1.3	-22	-1.9	-14	-1.9%	4
CC(C)c1ccc(Nc2nc3ccc(C(=O)c4ccccc4)cc3n3cnnc23)cc1	1.8	/	/	/	12%	39

Fetched by compound from the entries so far:
SMILES	TRPML1 agonist	D2 potentiator	D2 agonist	Six1-Eya2 blk	PINK1 expr mod	TRPML1 inh
CC(=O)Nc1ccc(Nc2nc(-c3ccccc3)nc3ccccc23)cc1	-0.6	-13	2.4	-11	12%	3
Cc1ccc(NC(=O)c2cc(S(=O)(=O)NCCC3=CCCCC3)ccc2F)cc1C	2.9	/	/	/	1.5%	-9
Cc1[nH]c(C)c(S(=O)(=O)N(C)Cc2ccccc2)c1C(=O)N1CCCCC1	0.7	-3	-1.8	1	-1.5%	-10

Next records
SMILES	TRPML1 agonist	D2 potentiator	D2 agonist	Six1-Eya2 blk	PINK1 expr mod	TRPML1 inh
CSc1sc2ccccc2[n+]1CCCS(=O)(=O)[O-]	0.5	-13	-0.1	2	-2.1%[38.3 µM]	-8
COc1ccc(/C=C2/C(=O)ON=C2C)cc1Br	-1.1	7	-2.6	14	9.3%	-3
Cc1[nH]nc(N=CC2=C(O)CC(C)(C)CC2=O)c1-c1ccc(Cl)cc1	1.1&0.5	-6&3	-3.6&0.7	4&-1	-3.1%&2.4%	-22&-9
CCC1CCc2sc(C(=O)N(C)CC(=O)Nc3cccc(OC)c3)cc2C1 (stereo unspecified)	4.0	6	3.1	-15	7.4%	-1
O=C(CSc1nnc(SCc2ccc(Cl)cc2)s1)N1CCN(C(=O)c2ccco2)CC1	0.2	-3	-3.0	4	-4.3%	0
COc1ccc(CCNC(=O)c2ccc3nc(N4CCCCC4)sc3c2)cc1OC	1.4	-10	-0.8	-2	0.0%	-3
COCCNC(=O)C(c1ccc(OC)cc1)N(CCOC)C(=O)CCC(=O)Nc1nccs1 (stereo unspecified)	0.2	-3	4.0	9	-0.6%	34
CCOC(=O)c1ccccc1NC(=O)c1cnn(-c2ccc(OC)cc2)c1C1CCN(C(=O)OC(C)(C)C)CC1	0.6	/	/	/	-1.1%	-12
COc1cc(/C=N/NC(=O)c2ccoc2C)cc(OC)c1OC	-0.1	-2	0.9	-2	8.8%[38.3 µM]	-5
COC(=O)c1oc2ccc(OC)cc2c1N	-0.3	-12	-3.1	-4	0.9%[38.3 µM]	-5
C/C(=N/OCO/N=C(\C)c1ccccc1F)c1ccccc1F	0.3	-9	0.4	4	6.3%	20
O=C(c1ccc(Br)s1)N1CCN(c2ccccn2)CC1	1.4	-1	-4.8	7	-0.3%	-27

Ordered by number of heavy atoms (lowest first): part of the list above
SMILES	TRPML1 agonist	D2 potentiator	D2 agonist	Six1-Eya2 blk	PINK1 expr mod	TRPML1 inh
COC(=O)c1oc2ccc(OC)cc2c1N	-0.3	-12	-3.1	-4	0.9%[38.3 µM]	-5
CC(=O)N(C1=C(Cl)C(=O)c2ccccc2C1=O)C1CCCCC1	0.9	-27	?	-1	0.9%	-14
CCN(CCS(=O)(=O)c1ccc(Br)cc1)Cc1nc2ccccc2c(=O)[nH]1	0.1	0	0.6	0	1.3%	-5
CC(C)(C)OC(=O)C[C@@H]1C/C=C\C[C@H](CC(=O)NCCO)C(=O)N[C@H](Cc2ccccc2)COC1=O	0.0	-7	-0.9	8	0.8%	-1

Following part:
SMILES	TRPML1 agonist	D2 potentiator	D2 agonist	Six1-Eya2 blk	PINK1 expr mod	TRPML1 inh
Cc1ccc(N(C)S(=O)(=O)c2ccc(C)cc2)cc1	0.7	-12	-1.2	16	-2.0%[38.3 µM]	22
O=C(CSc1nnc(-c2ccc(F)cc2)c2ccccc12)NCC1CCCO1 (stereo unspecified)	2.5	-7	0.5	-2	-3.8%	-1
C/C(N)=C(/C#N)C(=O)COC(=O)CNS(=O)(=O)c1c(F)cccc1F	0.9	-4	-4.6	7	1.3%	-17
CC1C(=O)N(Cc2cn(CC3CCCCC3)nn2)CCS(=O)(=O)N1Cc1ccc(-c2cccc(N(C)C)c2)cc1 (stereo unspecified)	0.2	-5	-0.7	-17	0.5%	2
O=C(O)CN1C(=O)/C(=C\c2cccc(OCc3ccccc3F)c2)SC1=S	-0.7	-6	4.5	-2	0.1%	-21
Cc1cccc(NC(=O)c2c(C)nc3ccccn23)c1	0.1	-3	-2.1	7	0.9%	22
CCOc1ccc(NC(=O)CCCCn2c(=O)[nH]c3ccsc3c2=O)cc1	-0.4	1	4.8	5	2.1%	1
N/C(=N\OC(=O)COc1ccccc1Cl)c1ccc(Cl)cc1	1.4	-2	-3.5	70	11%	-1
